Vaccinia mCherry: vaccinia inhibition (mCherry reporter). Vaccinia virus mCherry reporter infection, fluorescence; about a quarter of the inactives have no number. Potency, µM (titrated, usually from 36.5 µM), inactives show at the top dose activity change, negative = inhibition, most hits filed as inhibitors. 0.63% of 310,000 active; active = well fitted inhibition curve with a large enough effect; inconclusive = small, poorly fitted or top-dose-only effect; inactive = no such curve, though single readings can be large or run the other way; tested in A549 cells; note: nearly all actives have a fitted effect of over 35% in size; inactives centre near -10
VACV Venus inh: inhibitors of vaccinia virus (Venus reporter); 0.46% of 330,000 active; Vaccinia virus Venus reporter expression, fluorescence; AID 720580; Potency, µM (highest dose often 36.5 µM), for the others: top-dose activity change, negative = inhibition, most hits filed as inhibitors; active means well fitted inhibition curve with a large enough effect; inconclusive means small, poorly fitted or top-dose-only effect; inactive means no such curve, though single readings can be large or run the other way; tested in A549 cells; note: nearly all actives have a fitted effect of over 30% in size; inactives centre near -10
An asterisk follows results filed as active; i = inactive; ? = inconclusive; . = no result given; [ ] = another dose, or the depositor's remark. % is set by controls: 0 for no effect and ±100 for the full control effect; potency is the fitted concentration of half-maximal effect.

SMILES	Vaccinia mCherry	VACV Venus inh
CCOC(=O)C1CCN(C(=O)COC(=O)CSc2ccc(C(N)=O)cc2[N+](=O)[O-])CC1	-6%	-4%
CCOc1ccc(NC(=O)c2ccco2)c([N+](=O)[O-])c1	i	-23%
COc1ccc(NC(=O)CCNC(=O)c2ccc([N+](=O)[O-])cc2)cc1S(=O)(=O)N1CCCCC1	-15%	-12%
COCCCNC(NC(=O)c1ccc(OC)cc1)C(Cl)(Cl)Cl (centres undefined)	-21%	-1%
COCCNc1nnc(SCC(=O)Nc2nnc(-c3ccccc3)o2)s1	-10%	-4%
O=C1/C(=C/c2cccs2)N=C(c2cccs2)N1Nc1ccccc1	.	-17%
O=C(COC(=O)c1ccc(O)cc1)Nc1ccc2c(c1)OCO2	-10%	-5%
NC(=O)C1CCCN(C(=O)c2cccc(S(=O)(=O)N(Cc3ccccc3)c3ccccc3)c2)C1 (centres undefined)	-9%	-8%
Cc1cnc(C(=O)OCC(=O)N2c3ccccc3CC2C)cn1 (centres undefined)	4%	3%
CCn1c(NC(=O)Nc2ccccc2OC)nc2ccccc21	.	-10%
O=C(Nc1ccccc1)N1CCCC1	-4%	-5%
Cc1ccsc1/C=N/Nc1nc(=O)[nH]nc1C	?	-13%
CC(C)n1nnnc1C1c2ccccc2C(=O)N1CCCn1ccnc1 (centres undefined)	0%	-4%
Cc1ccc(C)n1-c1nnc(N2CCCC(C(=O)NCc3ccccc3)C2)s1 (centres undefined)	-17%	-10%
Cc1ccc(NC(=O)CN(C)C(=O)c2ccc(COc3ccccc3)cc2)cc1	-4%	-6%
CC(=O)Nc1nonc1-c1nnc(SCc2ccc(F)cc2Cl)n1C	-7%	-6%
Cc1ncc([N+](=O)[O-])n1Cc1cccc2ccccc12	-2%	-3%
CCc1cccc(CC)c1N(COC)C(=O)Cn1nnc2ccccc21	.	-18%
CCCCn1c(=O)[nH]c(=O)c2c1nc(-c1ccncc1)n2CCOC	-14%	-10%
Cc1cccc(NC(=O)N2CC=C(c3c[nH]c4ccccc34)CC2)c1C	-16%	-4%
COc1ccc(NC(=O)CSc2nccn2Cc2ccco2)cc1	i	-6%
O=C(CN1C(=O)NC2(CCOc3ccccc32)C1=O)N1CCCCC1 (centres undefined)	-14%	-14%
Cc1nc2ccccn2c1C(=O)NN=C1C2CC3CC(C2)CC1C3	-16%	-9%
COc1ncnc2c1ncn2CCCN(CCCc1ccccc1)CCCn1cnc2c(OC)ncnc21	-3%	-13%
Cc1ccc(S(=O)(=O)N2CCCOC2CNC(=O)C(=O)NCc2cccnc2)cc1 (centres undefined)	i	2%
CCCCOc1ccc(C(=O)NCC(=O)NCc2ccncc2)cc1	-15%	-9%
CCOC(=O)c1c[nH]c(=S)n(-c2ccccc2)c1=O	i	-8%
Cc1cc(S(=O)(=O)N2CCCC2)ccc1OCC(=O)NC1CCCC1	i	-17%
CC1(Oc2cnc(Cl)c3ccccc23)CCN(Cc2ccc(-c3ccccn3)cc2)C1 (centres undefined)	2%	1%
NC(=O)C1CCN(C(=O)/C=C/c2cccc(Br)c2)CC1	-15%	-2%
CC1CCN(C(=O)COC(=O)CCc2c[nH]c3ccccc23)CC1	-8%	-13%
CC1(C)CC(=O)C2=C(C1)OC(N)=C(C#N)C21CCN(C(=O)OCc2ccccc2)CC1	?	-10%
Cc1ccc(OCC(=O)Nc2nnc(S(=O)(=O)N3CCCCCC3)s2)cc1C	i	-6%
Cc1ccc(C23OC(=O)C(C)(C)C2OC(=O)C3(C)C)cc1 (centres undefined)	15%	19%
CCn1c2ccccc2c2cc(C3C(C#N)=C(C)NC(C)=C3C#N)ccc21	-7%	-17%
CCOc1ccccc1N1CCN(S(=O)(=O)c2cccc3nsnc23)CC1	-28%	-5%
CC(Oc1ccc2c(c1)oc(=O)c1ccccc12)C(=O)NCCCN1CCOCC1 (centres undefined)	i	-12%
O=C(CCCN1C(=O)/C(=C/c2cccs2)SC1=S)Nc1cccnc1	-4%	-7%
Cc1nc2ccc(-n3ccc(=O)cc3)cc2s1	-11%	-3%
Cc1ccc(S(=O)(=O)N(C)CCCC(=O)NCc2ccc3c(c2)OCO3)cc1	.	-1%
COc1ccc(NC(=O)Cc2ccc(-c3ccccc3)cc2)cn1	-1%	-17%
O=C(c1ccc(Cl)c(S(=O)(=O)N2CCCC2)c1)N1CCN(c2ccccc2)CC1	-19%	-14%
CCN(C(=O)CSc1ncc(S(=O)(=O)c2ccc(C)c(Cl)c2)c(=O)[nH]1)c1cccc(C)c1	-4%	-7%
COc1cccc(NC(=O)C2(C)CCN2C(=O)Cc2ccc(-c3ccccc3)cc2)c1 (centres undefined)	13%	-20%
O=C(NCc1cc(C(F)(F)F)cc(C(F)(F)F)c1)C1CC(c2ccccc2C(F)(F)F)=NO1 (centres undefined)	-14%	4%

13 structures from above, sorted by number of heavy atoms, low to high.
SMILES	Vaccinia mCherry	VACV Venus inh
Cc1nc2ccc(-n3ccc(=O)cc3)cc2s1	-11%	-3%
CCOC(=O)c1c[nH]c(=S)n(-c2ccccc2)c1=O	i	-8%
NC(=O)C1CCN(C(=O)/C=C/c2cccc(Br)c2)CC1	-15%	-2%
Cc1ccc(C23OC(=O)C(C)(C)C2OC(=O)C3(C)C)cc1 (centres undefined)	15%	19%
COc1ccc(NC(=O)Cc2ccc(-c3ccccc3)cc2)cn1	-1%	-17%
Cc1cc(S(=O)(=O)N2CCCC2)ccc1OCC(=O)NC1CCCC1	i	-17%
CCn1c2ccccc2c2cc(C3C(C#N)=C(C)NC(C)=C3C#N)ccc21	-7%	-17%
Cc1ccc(S(=O)(=O)N(C)CCCC(=O)NCc2ccc3c(c2)OCO3)cc1	.	-1%
O=C(c1ccc(Cl)c(S(=O)(=O)N2CCCC2)c1)N1CCN(c2ccccc2)CC1	-19%	-14%
CC(Oc1ccc2c(c1)oc(=O)c1ccccc12)C(=O)NCCCN1CCOCC1 (centres undefined)	i	-12%
CC1(C)CC(=O)C2=C(C1)OC(N)=C(C#N)C21CCN(C(=O)OCc2ccccc2)CC1	?	-10%
CCN(C(=O)CSc1ncc(S(=O)(=O)c2ccc(C)c(Cl)c2)c(=O)[nH]1)c1cccc(C)c1	-4%	-7%
O=C(NCc1cc(C(F)(F)F)cc(C(F)(F)F)c1)C1CC(c2ccccc2C(F)(F)F)=NO1 (centres undefined)	-14%	4%

Other entries
SMILES	Vaccinia mCherry	VACV Venus inh
CC(C)(C)n1nnnc1C(c1ccccc1F)N1CCN(C(=O)c2ccco2)CC1 (centres undefined)	-12%	-4%
O=[N+]([O-])c1ccc(N2CCOCC2)c2ccncc12	-2%	4%
O=C1NC2(CCCCC2)C(=O)N1Cc1ccc([N+](=O)[O-])cc1	-15%	-10%
CC(C)(C)OC(=O)C(Cl)(C(=O)OC(C)(C)C)c1ccc2nnnn2n1	-8%	-13%
COc1ccccc1C(=O)NC(=O)CSc1nnc2ccccn12	-10%	-11%
Cc1ccc(N(CC(O)CN2CCOCC2)S(=O)(=O)c2ccc3ccccc3c2)cc1 (centres undefined)	.	?
C[C@]12CCC3C(CC[C@H]4C[C@@H](O)CC[C@]34C)C1C[C@@H](O)[C@]2(C)O (some centres undefined)	-8%	5%
O=C(NCCC1CC1(Cl)Cl)Nc1ccccc1 (centres undefined)	i[7.34 µM]	-5%[7.34 µM]
COc1ccc(-c2nc3c(C#N)c[nH]n3c2NC2CCCCC2)c(OC)c1	-24%	?
COc1ccccc1CNC(=O)C[C@H]1CC[C@@H]2[C@H](COC[C@H](O)CN2Cc2ccc3c(c2)OCO3)O1	-27%	-12%
Cc1ccccc1OCCC(=O)OCC(=O)N(C)c1c(N)n(Cc2ccccc2)c(=O)[nH]c1=O	i	-5%
NS(=O)(=O)c1ccc(CNC(=O)NC2(c3ccccc3)CC2)cc1	i	-5%
CC(=O)n1c(C=Nc2ccccc2)c(O)c2ccccc21	-10%	1%
COC(=O)c1ccc(NC(=S)NNC(=O)CC(C)C)cc1	-9%	-5%
CC(C)C(=O)Nc1nc2c(ncn2[C@H]2CC(O)[C@@H](CO)O2)c(=O)[nH]1 (some centres undefined)	?	?
CN(C)c1ccc(N=c2sc3ccccc3n2C)cc1	-2%	-20%
Fc1cccc(F)c1/C=C/c1ccc2ccccc2n1	-13%	-12%
O=C(CC1C(=O)NCCN1CC(c1ccccc1)c1ccccc1)NC1CC1 (centres undefined)	-8%	-12%
CCCOC(=O)c1ccc(Oc2c(-c3ccc(OCC)cc3O)n[nH]c2C)cc1	-36%	?
O=C(NCCCCc1ccccc1)C1CC(c2ccccc2C(F)(F)F)=NO1 (centres undefined)	-8%	-20%
Cc1ccc(NC(=O)c2ncn(-c3ccccc3)n2)cc1Cl	-5%	-3%
CCN(CC(=O)NCc1ccc(F)cc1)Cc1nc2cc(Cl)ccc2c(=O)[nH]1	.	-28%
O=C(NCCCN1CCOCC1)c1ccc2c(c1)N(Cc1cccc(Cl)c1)C(=O)CS2	-26%	-5%
CC1CN(S(=O)(=O)c2cccc(C(=O)N(C)C3CCCCC3)c2)CC(C)O1 (centres undefined)	-27%	-27%
O=C(NCCOc1ccccc1F)c1cc(F)c(F)cc1Cl	-4%	4%
COc1ccc(Cn2nnnc2C(c2cccs2)N2CCCCCC2)cc1 (centres undefined)	i	-19%
Cc1cc(OCCCSc2nc(-c3ccc(C(C)(C)C)cc3)nc3cc(=O)[nH]n23)ccc1Cl	-5%[7.34 µM]	-14%[7.34 µM]
COc1ccc(S(=O)(=O)CCC(=O)O)cc1	.	-6%
CCOC(=O)[C@]12CCC=C1N(Cc1ccc3c(c1)OCO3)C(=O)[C@H](CC(=O)NCc1ccccc1)C2	-15%	2%
CCOc1ccc(NC(=O)NCc2c(-n3cccc3)sc3c2CCCC3)cc1	0%	-6%
CC(C)N1CCN(c2ccncc2S(=O)(=O)N2CCN(C)CC2)CC1	i	-16%
O=C(NCCc1ccccc1)c1cc(=O)c2ccccc2o1	i	-6%
CN=c1scc(-c2cccs2)n1/N=C/c1ccc(O)c(O)c1O	-22%	-5%
CC(C)(C)C(=O)Nc1c(C(=O)N2CCN(c3ccc(F)cc3)CC2)oc2ccccc12	-11%	-15%
CCCCCCNc1cc(C)oc(=O)c1C(C)=O	i	?
COc1ccc(NC(=O)CCC(=O)c2cccs2)cc1Cl	-22%	-12%
CCOC(=O)/C=C1/N(C)c2ccccc2C1(C)C	i	-14%
Cn1c(CSc2ncccn2)nnc1SCC(=O)N1CCCCC1	-8%	-6%
COc1ccccc1C(=O)Nc1ccccc1C(=O)Nc1ccccc1	0%[7.34 µM]	-3%[7.34 µM]
CC(=O)Nc1ccc(NC(=O)CSc2nnc3c4ccccc4n(C)c3n2)cc1	5%	-10%
COc1ccc(OC)c(NC(=O)NCc2cccnc2)c1	-14%	-10%
Cc1nc(C)c(-c2nnc(-c3ccccc3Cl)o2)cc1C(=O)NN	-1%[7.34 µM]	-4%[7.34 µM]
Cc1c(-c2ccco2)[n+](=O)c2c(n1[O-])CCC2	i	-19%
COc1ccc(OC)c(S(=O)(=O)N2CCN(Cc3nc4ccc(C)cc4o3)CC2)c1	-5%	-8%
Cc1cc(C(=O)C(C)Sc2cccc[n+]2[O-])c(C)n1-c1ccc(Cl)cc1 (centres undefined)	-27%	-19%
CCC(Oc1ccccc1F)C(=O)Nc1cc(-c2ccccc2)no1 (centres undefined)	-15%	-7%
CCn1c(C(=O)NCCc2ccc(OC)c(OC)c2)cc2sc(Cl)cc21	0%[7.34 µM]	1%[7.34 µM]
COc1ccc(/C=C(\C#N)C(=O)NC(C)c2ccccc2)cc1O (centres undefined)	?	-9%
CC1(C(=O)NCc2cccc3ccccc23)CCN1C(=O)C1(c2ccccc2)CCCC1 (centres undefined)	24%	0%
CC(=O)c1cccc(N(C(=O)Cn2nnc3ccccc32)C(C(=O)NCC2CCCO2)c2ccc(N3CCOCC3)cc2)c1 (centres undefined)	i	-1%
Cc1cc(N2CCN(c3ccccc3)CC2)nc(N2CCOCC2)n1	-27%	-9%
O=C1NC[C@@H](CCCCN2CCN(CCc3ccc(O)cc3)C(=O)C2=O)N(CCc2ccc(O)cc2)C1=O	10%	7%
COc1ccc(Cl)cc1C(=O)NNC(=S)NC1CCCC1	-8%	-8%
COc1ccc(/C=N/OCC(=O)NCC(C)C)c(OC)c1	-13%	-19%
Cc1ccccc1N1CCN(c2ncnc3c2cnn3Cc2ccc(Cl)cc2)CC1	.	?
Cc1nn(Cc2ccc(Cl)cc2Cl)c(Cl)c1C(=O)NC1CCCc2ccccc21 (centres undefined)	i	-9%
COc1ccc(C(c2nnnn2Cc2ccccc2)N2CCC3(CC2)C(=O)NCN3c2ccccc2)cc1 (centres undefined)	14%	-16%
CC(C)c1nc2n[nH]c(N)c2c2c1CCC2	-27%	-22%
O=C1C(Cl)=C(N2CCOCC2)C(=O)N1CCc1ccccc1	-19%	0%
COC(=O)[C@@]12C[C@@H](CC(=O)NCc3ccc(C)o3)C(=O)N(Cc3cccc4ccccc34)C1=CCC(C)(C)C2	-10%	?
CCCCCCCNC(=O)C1(CC2CC(c3cccc(Br)c3)=NO2)CCN(C(=O)C2(C)CC2)CC1 (centres undefined)	i	-27%

Screening results deposited in PubChem BioAssay by National Center for Advancing Translational Sciences (NCATS).
